BJeLR viability – kills HRASV12-expressing BJeLR cells. hit rate 0.17% among 300,000. inhibition, % (concentration not given with the values). BJeLR (HRASV12) viability, CellTiter-Glo ATP luminescence, 48 h; reference of the scale not given here;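 active = replicate mean above 50%; inconclusive = above 50% but judged a plate artefact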;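 note: 50 nL library stock added to about 25 µL; numbers are from one replicate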
PrP 5UTR inh – suppresses PrP 5' UTR mRNA reporter expression. cell-based PrP 5' UTR mRNA reporter, plate reader. inhibition, % (test concentration not listed). hit rate 0.35% among 340,000. AID 488862;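 active = every replicate at 50% or more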;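 note: 0 = median of the neutral control wells; tested in H4 reporter cells; numbers are from one replicate; inactives centre near -14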
Sa RN4220 lethal – S. aureus RN4220 growth inhibition; hit rate 0.33% among 330,000; inhibition, % (concentration not given with the values); AID 1259311; OD600, 16 h;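 active = z-score of -3 or lower and OD600 up to 0.18 on both plates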;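 note: plate controls were untreated cells for no effect and reference antibiotic for full effect; stock transfer was 100 nL into about 80 µL; one replicate is shown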
Bead autofluor – counter-screen for toxin protease inhibitors: compound fluorescence; fluorescence intensity (no concentration beside the values); AID 624483; hit rate 3.1% among 360,000; compound autofluorescence counterscreen, microsphere flow cytometry; hits give high values;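 active = at least 3 SD above the mean of all compounds, about 16000 in these data; inconclusive = too few beads counted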;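 note: 100 nL of 1 mM stock went into each well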
Mtb hypoxia inh – Mtb hypoxia fluorescent reporter inhibition. M. tuberculosis hypoxia-regulated fluorescent reporter, fluorescence. fluorescence inhibition, % (test concentration not listed). hit rate 0.1% among 300,000;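 active = 35 to 45% if threefold the growth effect, above 45% if 1.5-fold the growth effect; inactive = the rest, general growth blockers included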;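 note: wells of about 50 µL received 100 nL stock; 0% = vehicle wells and 100% = reference inhibitor wells; whole bacteria with a GFP reporter of the hypoxia response; strong numbers were not always called active; many hits fall short of the cut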
Sa ugtP lethal – compounds lethal to S. aureus RN4220 ugtP deletion mutant. OD600 growth, 16 h; some inactives read as strong as hits. hit rate 0.54% among 330,000. growth inhibition, % (test concentration not listed);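 active = z-score under -3 and OD600 up to 0.15 on both plates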;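 note: plate controls were untreated wells for no effect and antibiotic for full effect; wells of about 80 µL received 100 nL stock; the first replicate is given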
Mtb hypoxia inh growth – further read-out of Mtb hypoxia inh, marked with its call; growth inhibition, %; measured here: M. tuberculosis growth (absorbance);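 0% = vehicle and 100% = reference antibiotic; read after six days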
* marks the source's active call; other numbers are inactive results; ? = inconclusive; / = no result given.

Value order: BJeLR viability	PrP 5UTR inh	Sa RN4220 lethal	Bead autofluor	Mtb hypoxia inh	Mtb hypoxia inh growth	Sa ugtP lethal
> O=C(NC1CCSC1=O)c1ccc(Oc2cccc(C(F)(F)F)c2)nc1 (stereo not drawn)
 : 11.3	-18.1	-5.4	3815	/	/	-3.2
> Cc1nc2cc(F)ccc2n1C1CCN(C(=O)c2ccc(F)cc2F)CC1
 : /	-65.6	1.5	3623	13.2	1.5	7.2
> CCCOc1ccc(C(O)=C2C(=O)C(=O)N(CCN(C)C)C2c2ccco2)cc1 (stereo not drawn)
 : /	/	1.9	/	12.9	5.5	1.0
> CCN1CCN(c2nc3ccccc3nc2C(C#N)C(=O)OCc2ccccc2)CC1 (stereo not drawn)
 : -18.3	-14.7	-0.9	5680	-6.9	10.1	-10.9
> CC1CCCCN1S(=O)(=O)c1ccc(C(=O)Nc2sccc2C(N)=O)cc1 (stereo not drawn)
 : -6.2	-56.8	9.6	5892	3.8	5.7	11.9
> CCN(CC(=O)Nc1ccccc1C(F)(F)F)C(=O)CCS(=O)(=O)c1ccc(Cl)cc1
 : -3.0	-14.9	3.1	6392	2.3	2.0	4.2
> COc1ccc(S(=O)(=O)N(CC(=O)NCC2CCCO2)c2ccc(F)cc2)cc1OC (stereo not drawn)
 : 5.4	1.7	-0.9	/	5.4	4.2	0.3
> CCOc1ccccc1NC(=O)NCCc1c[nH]c2ccccc12
 : -1.4	-10.0	-1.3	3711	11.8	6.1	6.4
> CCCOc1cc(NCc2ccccc2)c2ncn(C(C)C)c2c1
 : /	-4.6	3.5	4143	4.5	-0.2	1.8
> COc1c(Br)cc(Br)cc1/C=N/n1c(C)nnc1C
 : 1.1	-17.7	/	9347	/	/	/
> O=C(Nc1cccc2cccnc12)c1cccc(Cl)c1
 : 1.7	-44.3	13.6	3924	4.1	10.4	7.7
> C=CCN(C(=O)CCC(=O)Nc1cc(C)on1)C(C(=O)NC1CCCC1)c1cccnc1 (stereo not drawn)
 : 1.8	-18.3	-0.9	3133	/	/	8.5
> COc1ccc2nc(N3CCCC(C(=O)NCCc4ccc(OC)c(OC)c4)C3)sc2c1 (stereo not drawn)
 : -0.7	-29.2	4.1	3535	10.0	2.4	-2.5
> Cc1ccc(C(=O)NC(O)C(Cl)(Cl)Cl)cc1 (stereo not drawn)
 : 2.0	-53.6	3.5	1938	3.6	4.0	-1.6
> CCOC(=O)Cc1csc(NC(=O)/C=C/c2ccc(Br)o2)n1
 : 5.7	-16.4	3.3	3568	2.8	1.2	11.5
> Cc1cc(S(=O)(=O)Nc2cc(C)c(O)c(C)c2)c(C)s1
 : 7.6	-14.7	4.9	16803*	1.1	-3.0	5.0
> CCOc1cc(C(=O)NCCCNC(=O)c2cc(OCC)c(OCC)c(OCC)c2)cc(OCC)c1OCC
 : 10.9	-8.2	4.6	6282	8.6	0.7	4.6
> O=C(Cc1ccccc1)N/N=C/c1cccn1-c1ccc([N+](=O)[O-])cc1
 : -0.6	-11.5	/	2041	/	/	/
> Cc1cc(C)c[n+](-c2[nH]c(=O)sc2C=NNC([S-])=Nc2ccccc2)c1
 : /	/	5.5	/	18.3	7.4	13.6
> COc1ccc(OC)c(S(=O)(=O)N2CCC(C(=O)NCCC3=CCCCC3)CC2)c1
 : -2.0	-11.8	-0.6	?	5.0	3.2	-5.2
> COc1ccc(C2CC(c3cc(OC)ccc3OC)n3nnnc3N2)cc1 (stereo not drawn)
 : -11.0	-21.0	2.7	2731	9.6	13.3	-1.7
> Cc1ccc(SC(C)C(=O)NCCC2=CCCCC2)cc1 (stereo not drawn)
 : -4.7	-25.4	14.6	9843	4.5	13.8	-4.0
> O=C(c1ccc(F)cc1)C1CCN(Cc2ccc(F)cc2)CC1
 : -9.3	-14.0	2.7	7621	0.9	2.0	9.1
> CCOC(=O)c1ccc(N2C(=O)CC(N(C)CCc3ccc(OC)c(OC)c3)C2=O)cc1 (stereo not drawn)
 : 11.1	-3.4	-6.0	2801	1.0	-4.2	-2.3
> COc1c(O)cc2c(c1O)C(=O)CC(c1ccccc1)O2 (stereo not drawn)
 : -2.2	/	3.9	/	/	/	3.9
> O=C(NCC1CCCO1)c1nn2c(C(F)(F)F)cc(-c3cc(Br)cs3)nc2c1Br (stereo not drawn)
 : -4.6	-27.1	9.0	5866	7.4	0.2	6.3
> CN(c1ccc(OCC(=O)N2CCCCC2)cc1)S(=O)(=O)c1cccs1
 : 15.5	-11.4	5.9	3532	7.8	9.4	-5.9
> CSCc1ccc(C(=O)N2CCCC(Nc3ccc4c(c3)OCCO4)C2)o1 (stereo not drawn)
 : 0.1	-9.6	1.1	5405	5.2	2.9	3.1
> COc1ccc(NS(=O)(=O)c2cc(NC(=O)CC(=O)c3ccc([N+](=O)[O-])cc3)ccc2C)cc1
 : -0.6	-10.8	4.3	2435	-0.6	6.0	-2.0
> O=C(NCc1ccco1)c1cc2ccc(O)cc2oc1=O
 : 28.6	-27.2	1.1	2348	/	/	-3.3

Part of the list above in order of SMILES length, high to low.
Value order: BJeLR viability	PrP 5UTR inh	Sa RN4220 lethal	Bead autofluor	Mtb hypoxia inh	Mtb hypoxia inh growth	Sa ugtP lethal
> COc1ccc(NS(=O)(=O)c2cc(NC(=O)CC(=O)c3ccc([N+](=O)[O-])cc3)ccc2C)cc1
 : -0.6	-10.8	4.3	2435	-0.6	6.0	-2.0
> CCN(CC(=O)Nc1ccccc1C(F)(F)F)C(=O)CCS(=O)(=O)c1ccc(Cl)cc1
 : -3.0	-14.9	3.1	6392	2.3	2.0	4.2
> CSCc1ccc(C(=O)N2CCCC(Nc3ccc4c(c3)OCCO4)C2)o1 (stereo not drawn)
 : 0.1	-9.6	1.1	5405	5.2	2.9	3.1
> COc1ccc(C2CC(c3cc(OC)ccc3OC)n3nnnc3N2)cc1 (stereo not drawn)
 : -11.0	-21.0	2.7	2731	9.6	13.3	-1.7
> CCOc1ccccc1NC(=O)NCCc1c[nH]c2ccccc12
 : -1.4	-10.0	-1.3	3711	11.8	6.1	6.4
> O=C(Nc1cccc2cccnc12)c1cccc(Cl)c1
 : 1.7	-44.3	13.6	3924	4.1	10.4	7.7

Other compounds follow.
Value order: BJeLR viability	PrP 5UTR inh	Sa RN4220 lethal	Bead autofluor	Mtb hypoxia inh	Mtb hypoxia inh growth	Sa ugtP lethal
> O=C(CCCc1c[nH]c2ccccc12)NCc1ccc2c(c1)OCO2
 : 4.4	-21.2	-3.0	5439	/	/	-5.4
> Cc1ccc(-c2csc3ncn(CC#N)c(=O)c23)cc1
 : -3.4	-2.4	1.8	2049	-2.8	-5.5	3.7
> COC1=CC(=O)C(O)=C(CCCCCCC/C=C/CCCCCCCC2=C(O)C(=O)C=C(OC)C2=O)C1=O
 : 2.8	-17.7	/	4517	/	/	/
> COc1ccc(N(C(=O)Cn2nnc(-c3ccc(Cl)cc3)n2)C(C(=O)NCC2CCCO2)c2ccc(C)cc2)cc1 (stereo not drawn)
 : -1.0	-30.9	0.8	8878	-6.1	-11.6	-4.0
> Cc1ccc(NC(=O)NCC(c2cccnc2)N2CCOCC2)cc1 (stereo not drawn)
 : -2.1	-27.0	2.9	10213	7.0	6.4	1.4
> CCOc1ccc(/C=N/OCC(=O)Nc2cc(S(=O)(=O)N3CCOCC3)ccc2OC)cc1
 : 0.1	-11.2	/	4519	/	/	/
> COc1cccc(N2CCN(C(=O)c3ccc(CS(=O)Cc4ccc(Cl)cc4)o3)CC2)c1 (stereo not drawn)
 : -16.1	2.2	-6.8	5521	3.4	18.3	91.9*
> CC(C)(C)c1cc(C=NNC(=O)Cc2nc3ccccc3[nH]2)cc(C(C)(C)C)c1O
 : /	/	-9.5	/	-2.4	1.9	-21.4
> O=C(CNC(=O)c1cccc(Br)c1)N/N=C/c1cc(Br)cc(Br)c1O
 : -6.8	-5.4	/	2118	/	/	/
> Cc1ccc(NC(=O)COC(=O)/C=C/c2ccccc2)cc1S(=O)(=O)N1CCOCC1
 : -0.9	-54.5	6.4	4790	14.1	-3.3	3.4
> Cc1c(/C=N\NC(=O)c2csc3ccccc23)cnn1C
 : 26.0	-24.5	/	3275	/	/	/
> COc1ccc(/C=C2\SC(=NCc3ccccc3)NC2=O)cc1
 : 0.6	-8.4	1.1	8905	4.1	-0.3	0.8
> CCc1c(C)sc(NC(=O)OC)c1C(=O)N1CCOCC1
 : -0.8	-10.8	-0.4	11626	1.6	0.5	2.6
> COc1cc(NC(=O)COC(=O)CSc2ccc3ccccc3c2)c(C)cc1[N+](=O)[O-]
 : -2.4	-23.1	/	2455	/	/	/
> CCN(CC(=O)Nc1c(F)cccc1F)C(=O)c1cccc(S(=O)(=O)N2CCCCCC2)c1
 : /	-8.8	-1.3	7730	0.0	-1.3	-1.6
> O=C(N/N=C/c1ccccn1)c1cc([N+](=O)[O-])cc([N+](=O)[O-])c1
 : 2.0	-11.6	/	2075	/	/	/
> CC(=O)c1cccc(NC(=O)C2CCCN(S(C)(=O)=O)C2)c1 (stereo not drawn)
 : -2.3	-5.2	6.3	5488	13.8	3.8	-1.5
> N#Cc1ccc(C23CC4CC(CC(C4)C2)C3)[nH]c1=O
 : -17.6	-22.8	1.1	3568	5.6	9.7	-0.3
> C/C(=N\Nc1nccnc1Cl)c1ccc(F)cc1
 : 9.9	-36.0	/	4523	/	/	/
> COc1ccc(CNC(=O)CCCN2C(=O)NC3(CCCC3)C2=O)cc1
 : /	-13.6	3.6	3248	9.7	2.9	5.3
> COc1ccc(NC(=O)C(CC(=O)O)C(C)c2ccccc2)cc1 (stereo not drawn)
 : -5.2	-32.4	6.1	3636	14.2	5.1	-0.6
> COc1ccc2cc(CO)c(Cl)nc2c1
 : 4.4	-14.1	3.0	2647	-1.8	5.0	17.3
> ON=C1CCCCc2ccccc21
 : /	/	4.7	/	8.2	0.8	14.6
> CC(=O)Nc1nnc(Cc2c[nH]c3ccccc23)s1
 : 5.4	-9.6	4.1	3240	-13.0	-4.9	4.4
> Cc1nc(N2CCN(S(=O)(=O)c3ccc(F)cc3)CC2)c2c(C)c(C)sc2n1
 : -5.8	4.7	4.1	6476	9.3	15.9	6.6
> COc1ccc(-c2ccc(SCC(=O)N3CCOCC3)nn2)cc1OC
 : 15.7	-23.4	4.8	11309	-6.5	0.1	7.7
> CCCOCC(O)COc1ccccc1C(=O)N1CCOCC1 (stereo not drawn)
 : 2.6	-15.4	4.3	4713	/	/	5.1
> CCOc1ccc(NC(=O)CN(C)CC(=O)Nc2cccc(Cl)c2C)cc1OCC
 : 5.5	-11.4	1.8	4500	-1.3	6.3	-1.6
> Cn1c(=O)c2ncn(C)c2n(C)c1=O
 : /	-1.8	4.4	2808	14.3	5.2	10.9
> COc1ccc(/C=C/C(=O)c2ccc3c(c2)OCO3)cc1OC
 : /	-5.8	15.1	3944	10.5	11.4	5.1

The closing three compounds of the part above open the next one:
Value order: BJeLR viability	PrP 5UTR inh	Sa RN4220 lethal	Bead autofluor	Mtb hypoxia inh	Mtb hypoxia inh growth	Sa ugtP lethal
> CCOc1ccc(NC(=O)CN(C)CC(=O)Nc2cccc(Cl)c2C)cc1OCC
 : 5.5	-11.4	1.8	4500	-1.3	6.3	-1.6
> Cn1c(=O)c2ncn(C)c2n(C)c1=O
 : /	-1.8	4.4	2808	14.3	5.2	10.9
> COc1ccc(/C=C/C(=O)c2ccc3c(c2)OCO3)cc1OC
 : /	-5.8	15.1	3944	10.5	11.4	5.1
> COc1cc(CN2CCCC(CO)(Cc3cccc(Cl)c3)C2)cc2c1OCO2 (stereo not drawn)
 : -0.9	0.2	4.2	5447	12.9	1.1	6.9
> N#Cc1cc(S(=O)(=O)c2ccc(F)cc2)c(N)[nH]c1=O
 : 2.4	-15.1	1.9	2635	6.7	6.5	7.4
> Cc1cnc(CNC(=O)c2ccc(OC3CCN(C(=O)C4CC4)CC3)cc2)cn1
 : -15.0	7.1	6.4	2026	13.1	6.5	2.5
> CCc1ccc(-c2ccc(SCC(=O)Nc3nnc(C)s3)nn2)cc1
 : 3.9	-96.3	-2.9	3101	5.9	-0.8	1.2
> COC(=O)c1cc(COC(=O)c2ccc(OC)c(S(=O)(=O)N3CCCC3)c2)oc1C
 : -2.5	-1.6	-12.8	2523	21.8	7.5	-7.9
> Clc1cc(Cl)c2nc(N3CCOCC3)sc2c1
 : -3.2	-59.7	11.8	?	9.0	17.6	3.2
> COc1ccc(/C=N/NC(=O)c2nonc2N)cc1OC
 : -5.8	-24.0	/	5447	/	/	/
> CC(CC(=O)Nc1ccccc1Cl)=NNC(=O)C(=O)NCCO
 : /	/	2.3	/	5.9	2.5	-1.1

Outcome played no part in choosing rows; about 4% have a hit in one of these screens.
